Screening results (PubChem BioAssay)
Vaccinia inh – Vaccinia orthopox stage-specific inhibition | Vaccinia-infected cells, mCherry/Venus stage reporter fluorescence; active compounds read low; some inactives read as strong as hits | activity change (mCherry), % (concentration not given with the values) | 89,000 tested, 0.01% active | AID 1053133;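 active = mCherry past -33% and 40 or more points under the early reporter, replicates agreeing; inconclusive = past -33% without that gap or agreement; tested in A549 cells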;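 also: scaled between vehicle wells and reference inhibitor wells; 23 nL library stock went into each well; one replicate is shown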
Vaccinia inh Venus – second read-out of Vaccinia inh, no call of its own (marks repeat the call); activity change (Venus), %; measured here: Venus reporter, other viral stage;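 negative = less Venus signal; first of two replicates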
* = called active by the depositor; u = inconclusive; x = not tested or not shown; & = joins results of further samples. This is a subset. The share of hits here may be higher or lower than overall.

SMILES	Vaccinia inh	Vaccinia inh Venus
Cc1noc(C)c1S(=O)(=O)Nc1ccc2c(c1)CC(=O)N([C@@H](C)CO)C[C@H](C)[C@@H](CN(C)Cc1ccc(C(=O)Nc3ccccc3N)cc1)O2	13	9
CCCNC(=O)N1CCC2(CC1)CN(C(=O)CCC)[C@H](CO)c1[nH]c3cc(OC)ccc3c12	11	9
C[C@@H]1CN([C@@H](C)CO)C(=O)Cc2cc(NS(=O)(=O)c3ccc(Cl)cc3)ccc2O[C@@H]1CN(C)S(C)(=O)=O	19	20
C[C@@H]1CN([C@@H](C)CO)C(=O)c2cc(/C=C/c3ccccc3)cnc2O[C@@H]1CN(C)C(=O)c1cccnc1	19	3
COc1ccc(-c2ccc([C@H]3[C@@H](CO)N4CCCCN(C(=O)NC(C)C)C[C@H]34)cc2)cc1	-29	-13
C[C@@H]1CN([C@@H](C)CO)C(=O)Cc2cc(NC(=O)CCC(F)(F)F)ccc2O[C@H]1CN(C)CC1CCCCC1	u	x
COC(=O)C[C@H]1C[C@H]2c3cc(NC(=O)Cc4ccncc4)ccc3O[C@H]2[C@@H](CO)O1	4	2
Cc1noc(C)c1S(=O)(=O)Nc1ccc2c(c1)C(=O)N([C@@H](C)CO)C[C@H](C)[C@@H](CN(C)Cc1ccc3c(c1)OCO3)O2	3	-2
COCC(=O)N1C[C@H](C)[C@@H](OC)CN(C)C(=O)c2ccc(NC(=O)Nc3cccc(F)c3)cc2OC[C@@H]1C	12	7
C[C@@H]1CN([C@@H](C)CO)C(=O)c2cc(NS(=O)(=O)c3cccs3)ccc2O[C@@H](C)CCCCO[C@H]1CN(C)C(=O)CCCN(C)C	28	18
CC(=O)N(C)C[C@H]1Oc2cc(-c3cccnc3)ccc2S(=O)(=O)N([C@H](C)CO)C[C@H]1C	40	19
C[C@H](CO)N1C[C@H](C)[C@H](CN(C)C(=O)c2ccncc2)Oc2cc(/C=C/c3ccccc3)ccc2S1(=O)=O	-27	-21
CCCC#Cc1ccc([C@H]2[C@@H](CO)N3C(=O)CN(C(=O)Nc4ccccc4)C[C@@H]23)cc1	-14	-11
COc1ccc2c3c(n(C)c2c1)[C@H](CO)N(C(=O)Nc1ccc(F)cc1)CC31CN(C(=O)Nc2c(C)noc2C)C1	-4	-6
CC(C)NC(=O)Nc1cccc2c1O[C@H](CN(C)C(=O)Nc1cccc3ccccc13)[C@H](C)CN([C@@H](C)CO)C2=O	u	x
CC(C)NC(=O)N[C@@H]1CC[C@H](CC(=O)NCc2ccc(Oc3ccccc3)cc2)O[C@H]1CO	-3	3
CN(C)C(=O)c1cccc(-c2ccc([C@@H]3[C@@H](CO)N4CCCCN(CCC(F)(F)F)C[C@H]34)cc2)c1	-1	-7
C[C@H](O)C#Cc1ccc([C@@H]2[C@@H](CO)N3CCCCN(C(=O)Nc4ccccc4)C[C@H]23)cc1	10	0
C[C@H]1CN([C@@H](C)CO)C(=O)c2cccc(NC(=O)Nc3ccc(C(F)(F)F)cc3)c2O[C@H]1CN(C)CC1CCCCC1	u	x
C[C@H](CO)N1C[C@H](C)[C@H](CN(C)CC2CCOCC2)Oc2ncc(-c3ccc(C#N)cc3)cc2C1=O	13	4
CN(C)C(=O)C[C@H]1CC[C@@H]2[C@H](COC[C@@H](O)CN2Cc2ccc(C(F)(F)F)cc2)O1	-24	-15
COc1cccc(-c2ccc3c(c2)[C@@H]2[C@@H](CCN2C(=O)C2CCCC2)[C@@H](CO)N3)c1	u	x
C[C@H]1CN([C@@H](C)CO)C(=O)Cc2cc(NC(=O)Nc3ccc4c(c3)OCO4)ccc2O[C@@H]1CN(C)C	-3	-1
C[C@@H]1CN([C@H](C)CO)C(=O)c2cc(NC(=O)Cc3cn(C)c4ccccc34)ccc2O[C@@H]1CN(C)Cc1ccc(C(=O)O)cc1	4	2
COC(=O)[C@@H]1[C@@H](CO)[C@@H]2Cn3c(ccc(C4=CCCC4)c3=O)[C@@H]2N1Cc1cncnc1	12	12

Whole records from above. Order of screens: Vaccinia inh	Vaccinia inh Venus
`C[C@@H]1CN([C@@H](C)CO)C(=O)c2cc(NS(=O)(=O)c3cccs3)ccc2O[C@@H](C)CCCCO[C@H]1CN(C)C(=O)CCCN(C)C` as listed: 28	18
`CC(C)NC(=O)N[C@@H]1CC[C@H](CC(=O)NCc2ccc(Oc3ccccc3)cc2)O[C@H]1CO` as listed: -3	3
`C[C@@H]1CN([C@@H](C)CO)C(=O)Cc2cc(NS(=O)(=O)c3ccc(Cl)cc3)ccc2O[C@@H]1CN(C)S(C)(=O)=O` as listed: 19	20
`COCC(=O)N1C[C@H](C)[C@@H](OC)CN(C)C(=O)c2ccc(NC(=O)Nc3cccc(F)c3)cc2OC[C@@H]1C` as listed: 12	7
`CCCC#Cc1ccc([C@H]2[C@@H](CO)N3C(=O)CN(C(=O)Nc4ccccc4)C[C@@H]23)cc1` as listed: -14	-11

(next part)
SMILES	Vaccinia inh	Vaccinia inh Venus
O=C(C[C@H]1CC[C@H](NC(=O)C2CC2)[C@@H](CO)O1)NCCCN1CCOCC1	-3	-2
C[C@H]1CCCCO[C@@H](CN(C)C)[C@@H](C)CN([C@@H](C)CO)C(=O)c2cc(NC(=O)Nc3cccc4ccccc34)ccc2O1	u	x
O=C(O)C1=C[C@@H](c2ccc3c(c2)OCO3)C[C@@H](OCc2ccc(CO)cc2)O1	17&20	0&10
C[C@@H]1CN([C@@H](C)CO)C(=O)c2cccc(NS(=O)(=O)c3cccs3)c2O[C@@H]1CN(C)S(=O)(=O)c1ccccc1	2	0
CN(C)C(=O)c1cccc(-c2ccccc2[C@H]2[C@@H](C#N)N(C(=O)C3CCC3)[C@H]2CO)c1	-1	1
C[C@H](CO)N1C[C@H](C)[C@@H](CN(C)S(=O)(=O)c2ccc(Cl)cc2)Oc2ccc(NC(=O)Nc3ccccc3)cc2CC1=O	-16	-10
C[C@H](CO)N1C[C@H](C)[C@@H](CN(C)C(=O)CC2CC2)Oc2cc(-c3ccncc3)ccc2S1(=O)=O	4	6
C[C@H]1CCCCO[C@H](CN(C)C(=O)Nc2ccccc2)[C@@H](C)CN([C@@H](C)CO)C(=O)c2cc(NC(=O)Nc3ccc(F)cc3)ccc2O1	-10	-7
C/C=C/c1ccc([C@H]2[C@@H](CO)N(C(C)=O)[C@@H]2CN(CC(C)C)C(=O)CC)cc1	3	12
COCC(=O)N1CC2(C1)CN(S(C)(=O)=O)[C@@H](CO)c1c2c2ccc(OC)cc2n1C	22	6
O=C(C[C@@H]1CC[C@@H]2[C@H](COC[C@H](O)CN2Cc2cc(F)ccc2F)O1)NCc1ccc(F)cc1	-11	-5
COCC(=O)Nc1ccc2c(c1)OC[C@@H](C)N(C(=O)c1ccccc1)C[C@@H](C)[C@H](OC)CN(C)C2=O	9	4
CCC(=O)N1C[C@H](O)COC[C@H]2O[C@H](CC(=O)NCc3ccc(Oc4ccccc4)cc3)CC[C@@H]21	6	1
Cc1noc(C)c1NC(=O)N(C)C[C@@H]1OCCCC[C@H](C)Oc2ccc(NC(=O)NC3CCCCC3)cc2C(=O)N([C@@H](C)CO)C[C@H]1C	32	12
COc1ccc(CN(C)C[C@H]2Oc3ccc(NC(=O)Nc4cccc5ccccc45)cc3C(=O)N([C@H](C)CO)C[C@H]2C)cc1	-15	-17
Cc1cc(C(=O)Nc2cccc3c2O[C@@H](CN(C)C)[C@H](C)CN([C@H](C)CO)C3=O)n(C)n1	3	1
C[C@H]1CN([C@@H](C)CO)C(=O)c2cccc(NC(=O)CCCCCC(=O)Nc3ccccc3N)c2O[C@@H]1CN(C)C(=O)Nc1cccc2ccccc12	11	7
C[C@H]1CN([C@@H](C)CO)C(=O)Cc2cc(NC(=O)Nc3ccc(C(F)(F)F)cc3)ccc2O[C@@H]1CN(C)S(=O)(=O)c1cn(C)cn1	5	3
COc1ccccc1-c1ccc(C2[C@H]3CNC[C@@H]2N3S(=O)(=O)c2ccccc2OC)cc1 (stereo partly drawn)	13	12
CNC[C@@H]1Oc2ccc(NC(=O)CCCN(C)C)cc2CC(=O)N([C@@H](C)CO)C[C@H]1C	9	9
Cc1ccccc1-c1ccc2c(c1)O[C@H](CN(C)Cc1ccncc1)[C@H](C)CN([C@@H](C)CO)S2(=O)=O	u	x
COc1ccc(S(=O)(=O)N[C@H]2C=C[C@@H](CC(=O)NCCc3ccncc3)O[C@H]2CO)cc1	2	-1
Cc1noc(C)c1S(=O)(=O)Nc1ccc2c(c1)C(=O)N([C@H](C)CO)C[C@H](C)[C@H](CN(C)CC1CCCCC1)O2	-2	-3
C[C@H](CO)N1C[C@H](C)[C@H](CN(C)Cc2ccc(C(F)(F)F)cc2)Oc2c(NS(C)(=O)=O)cccc2C1=O	5	6
C[C@H](O)C#Cc1ccc2c(c1)O[C@@H](CN(C)C)[C@@H](C)CN([C@@H](C)CO)S2(=O)=O	17	4

Another view of some results above.
> Cc1noc(C)c1NC(=O)N(C)C[C@@H]1OCCCC[C@H](C)Oc2ccc(NC(=O)NC3CCCCC3)cc2C(=O)N([C@@H](C)CO)C[C@H]1C
  Vaccinia inh: 32
  Vaccinia inh Venus: 12

> COc1ccc(CN(C)C[C@H]2Oc3ccc(NC(=O)Nc4cccc5ccccc45)cc3C(=O)N([C@H](C)CO)C[C@H]2C)cc1
  Vaccinia inh: -15
  Vaccinia inh Venus: -17

> Cc1cc(C(=O)Nc2cccc3c2O[C@@H](CN(C)C)[C@H](C)CN([C@H](C)CO)C3=O)n(C)n1
  Vaccinia inh: 3
  Vaccinia inh Venus: 1

Other entries:
SMILES	Vaccinia inh	Vaccinia inh Venus
CC(C)NC(=O)N(C)C[C@H]1Oc2cc(C#Cc3ccccn3)ccc2S(=O)(=O)N([C@@H](C)CO)C[C@@H]1C	-12	-7
C#Cc1ccc([C@@H]2C=C(C(=O)NCc3nc4ccccc4[nH]3)O[C@H](OCC)[C@H]2CCCO)cc1	-12	-7
O=C(Cc1ccccc1)N1CC[C@H]2[C@H](CO)Nc3ccc(-c4ccccc4F)cc3[C@H]21	-29	-16
O=C([C@H]1[C@H](CO)[C@H]2Cn3c(cccc3=O)[C@@H]1N2CC1CC1)N1CCc2ccccc2C1	13	4
CN1CCN(C(=O)C[C@H]2CC[C@@H]3[C@H](COC[C@@H](O)CN3C(=O)c3ccccc3F)O2)CC1	5	3
C[C@@H]1CN([C@@H](C)CO)C(=O)c2cc(N(C)C)ccc2O[C@@H](C)CCCCO[C@H]1CN(C)C(=O)c1ccccc1	-34	-21
O=C(C[C@H]1CC[C@H]2[C@@H](COC[C@H](O)CN2CCC(F)(F)F)O1)NCc1ccc2c(c1)OCO2	16	14
Cc1noc(C)c1S(=O)(=O)N(C)C[C@H]1Oc2ccc(NC(=O)Cc3cn(C)c4ccccc34)cc2CC(=O)N([C@@H](C)CO)C[C@@H]1C	18	8
C[C@@H]1CN([C@H](C)CO)C(=O)Cc2cc(NC(=O)C3CCCCC3)ccc2O[C@@H]1CN(C)Cc1ccncc1	13	15
C[C@@H]1CCCCO[C@@H](CN(C)C(=O)Nc2ccccc2)[C@H](C)CN([C@@H](C)CO)C(=O)c2cc(NC(=O)C3CCCCC3)ccc2O1	-6	-7
COc1ccc(NC(=O)N(C)C[C@H]2Oc3cc(C#CCN(C)C)ccc3S(=O)(=O)N([C@@H](C)CO)C[C@@H]2C)cc1	14	-6
CCCN1C[C@H](C)[C@H](OC)CN(C)C(=O)c2cc(NC(=O)c3ccccc3)ccc2OC[C@H]1C	3	1
COCC(=O)Nc1ccc2c(c1)C(=O)N(C)C[C@@H](OC)[C@@H](C)CN(C(C)=O)[C@@H](C)CO2	6	2
O=C(Nc1ccccc1)N1CC(=O)N2[C@@H](CO)[C@H](c3ccc(C#CC4CCCCC4)cc3)[C@@H]2C1	u	x
Cc1cccc(S(=O)(=O)N2C[C@H]3[C@@H](c4ccccc42)[C@H](CO)N3C(=O)C2CC2)c1	2	1
C[C@@H]1CCCCO[C@H](CN(C)S(=O)(=O)c2cccs2)[C@H](C)CN([C@@H](C)CO)C(=O)c2cc(NS(=O)(=O)c3cn(C)cn3)ccc2O1	15	8
CCCC#Cc1ccc([C@H]2[C@@H](CO)N3CCCCN(C(=O)c4ccc5c(c4)OCO5)C[C@@H]23)cc1	u	x
CCN1[C@@H]2c3cccc(=O)n3C[C@@H]2[C@@H](CO)[C@@H]1C(=O)N1CCc2ccccc2C1	10	14
COc1ccc(C(=O)Nc2ccc3c(c2)OC[C@@H](C)N(C(C)=O)C[C@@H](C)[C@@H](OC)CN(C)C3=O)cc1	30	9
CC(C)NC(=O)N(C)C[C@H]1OCCCC[C@@H](C)Oc2ccc(NS(=O)(=O)c3ccc(F)cc3)cc2C(=O)N([C@@H](C)CO)C[C@@H]1C	18	20
CC(=O)N(C)C[C@@H]1Oc2ncc(C#CCc3ccccc3)cc2C(=O)N([C@H](C)CO)C[C@H]1C	1	5
COc1ccc(NC(=O)O[C@H]2[C@H](OC(=O)Nc3ccc4c(c3)OCO4)[C@H](OC(=O)Nc3ccc4c(c3)OCO4)[C@@H](OC)O[C@@H]2CO)cc1	-16	-15
COC(=O)C[C@@H]1C[C@H]2c3cc(NS(=O)(=O)c4ccc(F)cc4)ccc3O[C@H]2[C@@H](CO)O1	0	-5
C[C@H]1CCCCO[C@H](CN(C)S(=O)(=O)c2cn(C)cn2)[C@@H](C)CN([C@@H](C)CO)C(=O)c2cc(NC(=O)C3CCCCC3)ccc2O1	9	4
C[C@H]1CN([C@@H](C)CO)C(=O)c2cccc(NS(=O)(=O)c3cccs3)c2O[C@@H]1CN(C)S(=O)(=O)c1ccc(F)cc1	2	-1
C[C@H]1CN([C@@H](C)CO)C(=O)c2cccc(NC(=O)C3CCCCC3)c2O[C@@H]1CN(C)CC1CC1	-15	-9
C[C@H](CO)N1C[C@H](C)[C@H](CN(C)Cc2ccc(C(=O)O)cc2)Oc2c(NS(=O)(=O)c3cn(C)cn3)cccc2C1=O	22	16
Cc1cc(C(=O)Nc2cccc3c2O[C@@H](CN(C)CC2CC2)[C@H](C)CN([C@@H](C)CO)C3=O)n(C)n1	4	15
